Screens deposited in PubChem by National Center for Advancing Translational Sciences (NCATS).
aSyn yeast inh – inhibitors of alpha-synuclein toxicity in yeast. Yeast expressing alpha-synuclein, growth rescue, BacTiter-Glo, 24 h. Potency, µM (highest dose often 46.1 µM), inactives show top-dose growth rescue (activation), usual class: activators. 370,000 tested, 0.14% active. AID 652106; also: % of control where 0% means no effect; nearly all actives have a fitted effect of over 65% in size
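Screening used galactose-induced yeast with toxic alpha-synuclein levels, exposed to compound for 24 hr at 30 deg C. Cell growth, read with BacTiter-Glo luminescence, gave the measured signal.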
EPAC1 ag – EPAC1 (human) agonism. O95398. EPAC1 agonist qHTS, biochemical assay; response scale: 100% = response to 6.5 mM cAMP. Potency, µM (series often up to 154 µM), inactives show top-dose activation, hits mostly activators. 360,000 tested, 0.073% active. AID 720707; also: nearly all actives have a fitted effect of over 60% in size
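Nucleotide exchange by EPAC1 (100 nM) on Rap1B–BODIPY-GDP (250 nM) in the presence of 50 uM GDP is tracked fluorescently at 480/540 nm over 30 min. Signals are normalized to a 6.5 mM cAMP control.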
PTHR1 ag – agonists of human PTHR1 parathyroid hormone receptor; AID 743266; 410,000 tested, 0.075% active; Q03431; Potency, µM (top dose mostly 115 µM), for inactives: top-dose activation, usual class: activators; HEK293 GP2 PTHR1 cells, GloSensor cAMP luminescence, 1 h; also: nearly all actives have a fitted effect of over 55% in size; some results filed as inactive show a strong effect at the top dose; inactives centre near -15; many of its hits are not listed in these tables
Target sequence (Q03431 whole entry, looked up): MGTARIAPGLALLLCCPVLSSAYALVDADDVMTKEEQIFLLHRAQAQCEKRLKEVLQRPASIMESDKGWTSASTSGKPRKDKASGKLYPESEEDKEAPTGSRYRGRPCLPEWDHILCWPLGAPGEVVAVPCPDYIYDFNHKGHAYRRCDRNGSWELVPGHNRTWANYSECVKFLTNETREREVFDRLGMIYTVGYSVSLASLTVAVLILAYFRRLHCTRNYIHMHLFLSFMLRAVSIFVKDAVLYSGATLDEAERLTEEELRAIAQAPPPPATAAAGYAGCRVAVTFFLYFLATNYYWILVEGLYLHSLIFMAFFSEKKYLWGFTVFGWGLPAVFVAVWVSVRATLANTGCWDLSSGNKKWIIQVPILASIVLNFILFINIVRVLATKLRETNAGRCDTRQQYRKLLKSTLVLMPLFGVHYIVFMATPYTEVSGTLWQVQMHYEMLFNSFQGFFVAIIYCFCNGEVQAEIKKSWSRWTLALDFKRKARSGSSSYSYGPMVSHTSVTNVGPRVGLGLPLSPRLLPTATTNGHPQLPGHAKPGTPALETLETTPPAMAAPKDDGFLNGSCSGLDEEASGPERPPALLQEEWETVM
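HEK-293-derived GP2 cells expressing PTHR1 and a GloSensor cAMP reporter, 3,000/well, plated overnight, given luciferin plus IBMX (each 0.5 mM as added) for 1 h at 37 °C, then compound for 1 h at 37 °C. Luminescence was read after 15 min at room temperature.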
FUS suppressor – rescues growth of FUS-expressing yeast | S. cerevisiae FUS-expressing, growth rescue, OD600, 24 h | 390,000 tested, 0.24% active | AID 1347120 | Potency, µM (highest dose often 76.6 µM), for the others: at the top dose growth rescue (activation), usual class: activators;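 also: plate controls were DMSO vehicle for no effect and reference control for full effect; nearly all actives have a fitted effect of over 55% in size; some results filed as inactive show a strong effect at the top dose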
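Yeast expressing FUS under galactose induction, OD 0.005 in 2% galactose medium; compounds in a dilution series, 24 h at 30C. Growth rescue by absorbance at 600 nm; CP55940 positive control, DMSO negative.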
EPAC1 antagonist – EPAC1 (human) antagonism | AID 720709 | EPAC1 GEF assay, Rap1b-BODIPY-GDP exchange fluorescence | Potency, µM (highest dose often 115 µM), for inactives: top-dose activity change, negative = inhibition, most hits filed as inhibitors | 360,000 tested, 0.14% active;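 also: plate controls were vehicle for no effect and positive control for full effect; nearly all actives have a fitted effect of over 50% in size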
TDP-43 yeast inh – inhibitors of TDP-43 toxicity in yeast; TDP-43 expressing yeast growth rescue, BacTiter-Glo, 24 h; Potency, µM (doses to about 46.1 µM), inactives show top-dose growth rescue (activation), actives largely listed as activators; 410,000 tested, 1.8% active; also: % of control where 0% means no effect; nearly all actives have a fitted effect of over 50% in size
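Galactose-induced TDP-43 yeast, OD600=0.02, compound pinned; 24 hr, 30 deg C; BacTiter-Glo luminescence for growth. Inhibitors of TDP-43 toxicity read as activators.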
The depositor's hits bear a star; i = inactive; u = inconclusive; x = no result given; [ ] = dose if it differs, or a comment. Calls follow the shape of the dose curve; as a rule, active = well fitted curve in the direction sought with a large enough effect; inconclusive = small, poorly fitted or top-dose-only effect, or another doubt; inactive = no such curve, though single readings can be large; an effect the other way counts as inactive or inconclusive. Potency is read from the fitted curve at half-maximal effect. These rows are one share of the data; the hit share may differ from the screen's.

SMILES | aSyn yeast inh | EPAC1 ag | PTHR1 ag | FUS suppressor | EPAC1 antagonist | TDP-43 yeast inh
Cc1cc2c(c(C)c1Cl)C(c1ccc3c(c1)OCO3)CC(=O)O2 (stereo unspecified) | 15% | 5% | -36%[inhibitor] | u | -24% | 22µM*
Cc1noc(C)c1S(=O)(=O)Nc1cccc(C(F)(F)F)c1 | 11% | -12% | -28% | 17% | -13% | 11%
Cc1ccc(S(=O)(=O)N2[C@@H](c3ccc(F)cc3)C(C(=O)O)=C[C@H]2CC2CCCC2)cc1 | -2% | -18% | -15% | -10% | -25% | 2%
COCCN1CCN(Cc2nc(C3(c4ccc(C)cc4)CCCC3)no2)CC1 | 0% | 5% | i | -16% | -11% | -21%
COC(=O)c1ccc(C2CC(=O)NC3=C2C(=O)CCC3)cc1 (stereo unspecified) | 1% | 5% | -1% | 0% | -25% | 10%
CC(=O)N1N=C2c3ccccc3CCC2C1c1cccs1 (stereo unspecified) | 11% | 10% | -9% | -4% | 6% | 0%
CC(=O)Nc1c(O)nc(SCC(=O)Nc2sc3c(c2C#N)CCCCCC3)[nH]c1=O | -7% | 11% | i | 27% | -9% | -18%
COc1ccc(C(=O)/C=C/c2ccccc2)c(OC)c1 | -13% | 5% | -40%[inhibitor] | 5% | u | u
Cc1ccc(N(CN2C(=O)C3C4CCC(C4)C3C2=O)C(=O)c2ccco2)cc1 (stereo unspecified) | 2% | 1% | i | 6% | 2% | 14%
Cc1ccc(Oc2nc(-c3ccccn3)nc3ccccc23)cc1 | -7% | 8% | i | 11% | -14% | -2%
O=C(NC(=S)Nc1ccccc1N1CCN(C(=O)c2ccccc2)CC1)c1ccccc1F | 13% | -1% | -6% | u | -2% | u
COC(=O)c1cc(C(=O)OC)n(Cc2ccc(C)cc2)c1C | 10% | -1% | -9% | -1% | -7% | 23%
COc1cccc(OC)c1C(=O)Nc1c(C)n(C)n(-c2ccccc2)c1=O | -8% | -3% | -35%[inhibitor][57.5 µM] | -17% | 6% | -13%
CCCCC[C@@H]1C=C(C(=O)O)[C@H](c2ccc(OC)c(OC)c2)N1S(=O)(=O)c1ccc(C)cc1 | 4% | 7% | -11% | 27% | -5% | 10%
COc1cccc(C(=O)/C=C/Nc2ccc(S(=O)(=O)Nc3ncccn3)cc2)c1 | 22% | -3% | -5% | -7% | 13% | 8%
COC(=O)c1cc(C)c(C)cc1NC1OC(CO)C(O)C1O (stereo unspecified) | -2% | 1% | -24% | x | -5% | -2%
CCCOc1ccc(S(=O)(=O)Nc2ccccn2)c2ccccc12 | -10% | 8% | 4% | 16% | -13% | -16%
Cc1cc(C)c(C(=O)c2ccccc2)c(C)c1 | -2% | 11% | -4% | -7% | -2% | -8%
Cc1nc(Nc2ccc(Br)cc2Br)c([N+](=O)[O-])c(=O)[nH]1 | x | -17% | -7% | -32% | 2% | x
CN(Nc1cccc(Cl)c1)c1cccc(Cl)c1 | -28% | 13% | -42%[inhibitor] | -8% | -28% | 4%
CCC(C)Sc1ccc(-c2nc3ccc(Cl)cn3c2NCc2ccccc2)cc1 (stereo unspecified) | 3% | -1% | -10% | -10% | -14% | 0%
COc1ccc2c(c1)CCc1c(C(=O)Nc3ccn(Cc4ccc(C)cc4)n3)noc1-2 | -2% | 2% | -4%[57.5 µM] | 15% | 3% | -11%
COC(=O)c1ccc2nc(-c3cccc(Br)c3)c(Cc3cccc(F)c3)n2c1 | u | 1% | -18% | -9% | 13% | 1%
CN(Cc1ccccc1)C(=O)c1ccc(Nc2nc(C(N)COCc3ccccc3)cs2)nc1 (stereo unspecified) | 0% | 2% | -13% | u | -10% | 2%
Cc1cccc(Sc2nc(-c3ccccc3)ncc2C(=O)O)c1 | 14% | -4% | -47%[inhibitor] | 11% | 9% | -18%
COc1ccc2c(c1)CCc1c(C(=O)NCCc3ccc(OC)c(OC)c3)noc1-2 | -2% | -5% | i | 34% | -3% | -4%
CN(C(=O)c1ccccc1F)C(c1ccccc1)c1ccccc1 | -1% | 1% | -23% | 24% | -17% | -13%
CCOc1cc(C)c(S(=O)(=O)N2CCCCC2)cc1C | 16µM* | 4% | -72%[inhibitor] | -13% | 0% | u
CSc1nc(-c2ccco2)nn1C(=O)c1ccccc1Cl | -1% | 2% | -12% | -9% | -4% | 4%
COc1ccc(C(=O)/C=C/Nc2cccc(O)c2)cc1 | x | -3% | -21% | 13% | 13% | -9%
COc1ccc(Cl)cc1NC(=O)COC(=O)c1ccc(Br)o1 | 4% | -2% | -11% | 14% | 4% | 3%
COc1ccc(C2CC(=O)Oc3c(C(C)C)ccc(C)c32)cc1 (stereo unspecified) | -13% | -1% | -11% | 3% | -21% | 21%
COc1ccc2c(c1)CCc1c(C(=O)N3CCCCCC3)noc1-2 | -1% | 17% | i | 24% | -18% | u
Cc1cccc(N2Cc3ccccc3C2=NC(=O)c2ccc(Cl)nc2)c1 | 0% | 6% | i | 21% | -1% | 13%
S=c1[nH]ncn2c1cc1oc3ccccc3c12 | 6% | 7% | -26% | 6% | -27% | u
COC(=O)c1ccccc1C(=O)c1c(C)cc(C)cc1C | x | 10%[76.9 µM] | -34% | 4% | -10%[57.5 µM] | 9%
CC1CC(C(F)F)n2nc(C(=O)Nc3sc4c(c3C#N)CCC(C(C)(C)C)C4)nc2N1 (stereo unspecified) | 4% | -8% | -12% | 14% | 1% | 0%
Cn1c(SCC(=O)NNC(=O)c2ccccc2Br)nnc1C(F)(F)F | -6% | -5% | -17% | -16% | 8% | 4%
CCOc1ccccc1NC(=O)COC(=O)Cc1cccs1 | 7% | -17% | -24% | 7% | 2% | 5%
COc1ccc(NS(=O)(=O)c2cccs2)cn1 | 1% | -4% | -27% | -1% | 2% | -6%
O=C(O)c1ccc(NC(=O)C(c2ccccc2)c2ccccc2)cc1 | 5% | 1% | -62%[inhibitor] | -15% | 16% | u
O=C(NNC(=O)c1ccco1)c1ccco1 | -5% | 6% | i | 1% | -14% | 14%
CCCCN(C)C(=O)c1ccc(Nc2nc(C(N)COCc3ccccc3)cs2)nc1 (stereo unspecified) | 2% | -19% | i | u | -9% | 10%
CNc1nc(-c2ccc3c(c2)CCN3C(=O)CC(C)(C)C)c(C)s1 | 3% | -15% | 16% | 23% | 15% | -10%
COc1ccccc1-c1oc2ccccc2c1-c1ccc2c(c1)OCO2 | 7% | 5% | -15% | -24% | 24% | 12%
CCOC(=O)CN1C(=O)N(c2ccccc2OC)S(=O)(=O)c2ccccc21 | 0% | 8% | -6% | 1% | 11% | -1%
Cc1ccc(NC(=O)COC(=O)Cc2cccs2)c(Br)c1 | -1% | -1% | i | x | -12% | 5%
CCOC(=O)C1=C(C)N(C)C(=S)N(C)C1c1ccc(OC)cc1 (stereo unspecified) | -9% | 2% | 0% | -10% | 6% | -13%
COc1cccc(Cn2cnc(-c3ccccc3OC)c2-c2cccs2)c1 | 1% | -4% | -37%[inhibitor] | 6% | -24% | 4%
CCCC(=O)N1CCc2cc(-c3nc(N)sc3C)ccc21 | -6% | -2% | i | 42% | -12% | 7%
COc1ccc(N/C=C\C(=O)c2ccc3ccccc3c2)cc1 | 17% | -8% | -8% | 4% | 11% | -14%
Cc1cc(C)c(S(=O)(=O)Nc2cccc(S(=O)(=O)N3CCOCC3)c2)c(C)c1 | 2% | 5% | -4% | 15% | 5% | 5%
COc1ccc(N(CC(=O)NC(C)(C)C)C(=O)c2ccco2)cc1 | 0% | -6% | i | -4% | -21% | 11%
O=C1OC(c2ccccc2)(c2ccccc2)c2ccsc21 | -8% | 6% | -12% | -16% | 2% | 11%
CCOc1nc(-c2ccccc2Cl)nc2ccccc12 | 1% | -1% | i | -10% | 13% | 16%
COCCN(Cc1nc(C2(c3ccc(C)cc3)CCCC2)no1)C(C)C | 3% | -1% | -22% | 10% | -12% | -10%
Clc1ccc2nc(-c3cccc(SC4CCCCC4)c3)c(NCc3ccccc3)n2c1 | -3% | 2% | i | 15% | -8% | 6%
O=C(NCC1COc2ccccc2O1)c1ccc(Cl)cc1 (stereo unspecified) | -16% | 0% | -21%[57.5 µM] | 16% | 0% | -29%
c1ccc(Oc2nc(-c3ccccn3)nc3ccccc23)cc1 | 15% | -5% | -21% | 14% | -12% | -11%
COc1ccc(S(=O)(=O)N2CCC(C(=O)N3CCCCC3)CC2)cc1 | 0% | 3% | -70%[inhibitor] | 10% | -16% | -10%

Part of the list above, reformatted.
structure	aSyn yeast inh	EPAC1 ag	PTHR1 ag	FUS suppressor	EPAC1 antagonist	TDP-43 yeast inh
COc1cccc(OC)c1C(=O)Nc1c(C)n(C)n(-c2ccccc2)c1=O	-8%	-3%	-35%[inhibitor][57.5 µM]	-17%	6%	-13%
CCCCC[C@@H]1C=C(C(=O)O)[C@H](c2ccc(OC)c(OC)c2)N1S(=O)(=O)c1ccc(C)cc1	4%	7%	-11%	27%	-5%	10%
COc1cccc(C(=O)/C=C/Nc2ccc(S(=O)(=O)Nc3ncccn3)cc2)c1	22%	-3%	-5%	-7%	13%	8%

Next part.
SMILES | aSyn yeast inh | EPAC1 ag | PTHR1 ag | FUS suppressor | EPAC1 antagonist | TDP-43 yeast inh
Cc1ccc(Cl)cc1-c1cc(C(=O)NCC2CCCCC2)[nH]n1 | -1% | -6% | i | -11% | -11% | 20%
COC(=O)c1ccc2nc(-c3ccc(C)cc3)c(Cc3cccc(F)c3)n2c1 | 6% | -10% | -2% | 7% | -6% | 36%
CCCCc1c(-c2ccccc2OC)ncn1CCc1ccc(OC)cc1 | 4% | -7% | -49%[inhibitor] | 16% | -17% | 25%
CC(=O)c1ccc(NC(=O)c2ccc(N3C(=O)c4cccnc4C3=O)cc2)cc1 | 0% | -4% | i | u | 0% | 18%
S=c1[nH]nc(-c2ccccc2Cl)n1Cc1ccccc1 | 2% | 2% | -10% | 5% | 4% | u
COc1cc(C2CC(=O)Oc3cc(C)c(Cl)c(C)c32)cc(OC)c1OC (stereo unspecified) | 15% | -2% | -16% | 37% | -21% | 6%
CN(C)CCN1CCN(C(c2cc3ccccc3o2)c2nnnn2C(C)(C)C)CC1 (stereo unspecified) | 0% | 3% | i | 3% | -8% | 24%
COc1ccc(-c2sc3cc4c(cc3c2C#Cc2ccc(N)cc2)OCO4)cc1 | u | -5% | -1% | 33% | 0% | 0%
CC(=O)C1=NN(c2ccccc2)C2(S1)S/C(=C\c1ccccc1)C(=O)N2c1ccccc1 (stereo unspecified) | 3% | -1% | -20%[57.5 µM] | -3% | 0% | -3%
CN(Cc1ccccc1)C(=O)c1ccc(Nc2nc(C(N)Cc3ccccc3)cs2)nc1 (stereo unspecified) | u | -15% | -25% | 35% | 1% | 21%
COc1ccc(CNc2nc(-c3cccnc3)nn2C(=O)c2ccco2)cc1 | 1% | -2% | -5% | -1% | -10% | 6%
COc1ccc2c(c1)CCc1c(C(=O)NC3CCCCC3)noc1-2 | 2% | 5% | -24% | -1% | 2% | -7%

Three records drawn at random from those above, as already listed:
SMILES | aSyn yeast inh | EPAC1 ag | PTHR1 ag | FUS suppressor | EPAC1 antagonist | TDP-43 yeast inh
CC(=O)c1ccc(NC(=O)c2ccc(N3C(=O)c4cccnc4C3=O)cc2)cc1 | 0% | -4% | i | u | 0% | 18%
COc1ccc(-c2sc3cc4c(cc3c2C#Cc2ccc(N)cc2)OCO4)cc1 | u | -5% | -1% | 33% | 0% | 0%
COC(=O)c1ccc2nc(-c3ccc(C)cc3)c(Cc3cccc(F)c3)n2c1 | 6% | -10% | -2% | 7% | -6% | 36%
